# KCNQ2 inh: KCNQ2 potassium channel inhibitors, primary screen, cell-based, CHO-K1, FluxOR thallium flux, B-score (AID 2156); actives 1.1% (n = 310,000); 20 min; active compounds read low; only compounds with negative scores are shown here; some inactives read as strong as hits; B-score at 10 µM; O88943;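 active = fluorescence ratio B-score at most minus 3 library SDs, with starting brightness B-score within 2 library SDs, cut at about -5.5 in these data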
# Target sequence (O88943 whole entry, looked up): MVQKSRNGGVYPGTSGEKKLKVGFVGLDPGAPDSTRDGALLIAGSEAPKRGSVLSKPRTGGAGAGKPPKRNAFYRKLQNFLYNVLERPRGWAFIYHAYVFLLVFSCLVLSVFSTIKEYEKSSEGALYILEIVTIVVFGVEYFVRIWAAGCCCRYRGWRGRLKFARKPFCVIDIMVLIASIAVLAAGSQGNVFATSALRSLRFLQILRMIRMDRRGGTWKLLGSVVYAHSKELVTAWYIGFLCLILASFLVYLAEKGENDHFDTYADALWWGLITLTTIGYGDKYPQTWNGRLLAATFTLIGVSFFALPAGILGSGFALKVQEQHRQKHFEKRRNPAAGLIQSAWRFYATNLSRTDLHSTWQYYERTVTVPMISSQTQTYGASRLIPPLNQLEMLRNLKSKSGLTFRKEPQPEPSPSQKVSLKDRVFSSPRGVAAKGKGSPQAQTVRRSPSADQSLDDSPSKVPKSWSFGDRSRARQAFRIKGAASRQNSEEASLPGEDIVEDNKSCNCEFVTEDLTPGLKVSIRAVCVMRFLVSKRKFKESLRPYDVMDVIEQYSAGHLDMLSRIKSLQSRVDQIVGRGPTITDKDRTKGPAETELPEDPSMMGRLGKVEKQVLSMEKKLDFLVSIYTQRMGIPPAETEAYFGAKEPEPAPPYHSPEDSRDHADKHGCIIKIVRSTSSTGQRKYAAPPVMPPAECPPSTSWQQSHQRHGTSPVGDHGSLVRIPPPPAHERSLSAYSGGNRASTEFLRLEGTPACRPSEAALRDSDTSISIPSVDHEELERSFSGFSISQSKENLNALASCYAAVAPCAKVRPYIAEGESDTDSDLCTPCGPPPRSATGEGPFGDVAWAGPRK
# KCNQ2 inh baseline: also measured in KCNQ2 inh; calls as there; B-score; measured here: initial fluorescence intensity artifact check;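 brightness before thallium and not channel activity; 0 = typical well and far values either way flag optical interference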
# * marks the source's active call; other numbers are inactive results; i = inactive.
Compound | KCNQ2 inh | KCNQ2 inh baseline
O=[N+]([O-])c1ccccc1S(=O)(=O)N1CCc2ccccc2C1 | i | -0.07
O=c1[nH]c2cc(Cl)ccc2n1-c1ccccc1 | i | 2.9
CCC(=O)Nc1ccccc1C(=O)OCC(=O)c1ccccc1 | i | 0.11
CC(=O)CSc1nnc(CN2C(=O)CSc3ccc(C(F)(F)F)cc32)n1C | i | 0.65
COC(=O)C[C@H]1c2ccccc2S(=O)(=O)N1C(C)C | i | -0.06
COc1ccccc1/C=C/C=N/NC(=O)CCn1cnc2ccccc21 | i | 0.13
Cc1ccc(NC(=O)CC(C)CC(=O)NCc2ccccc2)cc1Cl (stereo not drawn) | i | 2.4
O=C1CN(C(=O)C2CC2)c2ccccc2N1 | i | 0.04
Cc1ccc(C)c(-n2c(Cc3cc(=O)[nH]c(=O)[nH]3)nnc2SC(C)C)c1 | i | -0.58
FC(F)(F)c1cccc(-n2c(Cn3nnc4ccccc43)n[nH]c2=S)c1 | i | -1.2
Cc1ccccc1N1CCN(S(=O)(=O)c2nnc(NC(=O)c3ccco3)s2)CC1 | i | 0.09
CC(=O)c1ccccc1NS(=O)(=O)c1c(C)nn(-c2ccccc2)c1C | i | -0.09
CCOc1cc(C=C(C#N)C#N)ccc1Oc1ccc([N+](=O)[O-])cn1 | i | -2
CCCCN1C[C@H](Cc2ccccc2)[C@@H](CC(=O)NCc2ccc(OC)cc2)C1=O | i | -1.9
Cn1c(SCC(=O)c2ccccc2)ncc(C(=O)Nc2ccccc2)c1=O | i | 0.01
O=C(COC(=O)c1cccc(Cl)c1)Nc1cc(Cl)ccc1Oc1ccccc1 | i | -0.85
COc1ccc(CCN(C)Cc2c(O)ccc3cc(Br)ccc23)cc1OC | i | -0.07
Nc1nc(N2CCN(C(=O)c3ccco3)CC2)nc2ccc(Br)cc12 | i | 1.2
Cc1nc2ccc(OC(=O)c3ccccc3)cc2s1 | i | -0.35
CC(C)NC(=O)c1ccc(-c2cccc(C(F)(F)F)c2)o1 | i | 0.07
COc1cc(/C=C2\CC/C(=C\c3ccc(OCCO)c(OC)c3)C2=O)ccc1OCCO | i | -0.3
Cc1cccc(N(C)S(=O)(=O)c2ccc3c(c2)CCC(=O)N3)c1 | i | -1.7
CCS(=O)(=O)c1ncc(Cl)c(C(=O)Nc2ccc(S(=O)(=O)N3CCCC(C)C3)cc2)n1 (stereo not drawn) | i | 1.8
COc1ccc(-c2csc(-n3cccn3)n2)cc1 | i | 0.08
Fc1ccc(-n2nnc(-c3ccccc3Cl)n2)cc1 | i | -1
Cn1c(CNC(=O)c2ccco2)nnc1SCC(=O)Nc1ccc(Cl)cc1 | i | 1.8
O=C(Nc1cc2c3c(c1)CC(=O)N3CCC2)c1ccc(F)cc1 | i | 0.3
O=C(NCCN1CCCCC1)c1ccc(/C=N/O)nc1 | i | -0.48
CNc1ccc(S(=O)(=O)NCC(=O)NCCCc2ccccc2)cc1[N+](=O)[O-] | i | -0.14
CCC(CC)c1nc(NCCC(=O)O)c2ccccc2n1 | i | 0.41
COc1ccc(Cc2nnc(NC(=O)c3c(-c4ccccc4)noc3C)s2)cc1 | i | -0.23
O=S1(=O)CC2N=C(N(Cc3ccc(F)cc3Cl)c3ccccc3F)SC2C1 (stereo not drawn) | i | 0.22
COc1ccccc1N1CCN(c2cc(=O)n(-c3ccccc3Cl)c(=O)[nH]2)CC1 | i | 1.2
CCOC(=O)C1=C(C)NC(=O)NC1c1ccc(N2CCC(c3ccccc3)=N2)cc1 (stereo not drawn) | i | 0.14
COC(=O)c1[nH]c(C)c(/C(O)=C2\C(=O)C(=O)N(CCN3CCOCC3)C2c2ccc(C)o2)c1C (stereo not drawn) | i | 0.08
CC1(C)Cc2ccccc2-c2c1c(=O)n(Cc1ccccc1)c1nnnn21 | i | -1.9
CCOC(=O)C1CCCN(CC(=O)c2c[nH]c3ccc(C)cc23)C1 (stereo not drawn) | i | -3
CNc1c(NC(=O)COc2ccc(Cl)cc2)c(=O)oc2ccccc12 | i | 0.72
Cc1ccc(NCc2nnc(SCC(=O)c3ccccc3)o2)c(C)c1 | i | -0.4
Cc1nn(S(=O)(=O)c2ccccc2)c(C)c1S(=O)(=O)N1CCOCC1 | i | 1.4
CCOc1ccc(S(=O)(=O)Nc2ccc(C(=O)N/N=C/c3c(C)nn(-c4ccccc4)c3N3CCCC3)cc2)cc1 | i | -0.25
NNc1nnc2c3cc(F)ccc3n(Cc3ccccc3)c2n1 | i | -1.5
CC1=CC(C)(C)N(S(=O)(=O)c2ccc(C)cc2)c2cc(C)ccc21 | i | 0.96
Cc1ccc2c(c1)C(=O)CCCCC(=O)N2 | i | -1.7
O=C(CCc1ccccc1)n1nc(-c2ccccc2)nc1NCc1ccco1 | i | -0.36
OCCC1CN(Cc2cccc3c2OCO3)CCN1Cc1ccccc1 (stereo not drawn) | i | 0.02
CN(C)CCCN(C(=O)c1cc(-c2cccs2)nc2ccccc12)c1nc2ccc(F)cc2s1 | i | -1.1
Cc1ccc(-c2[nH]c(=S)[nH]c(=O)c2C#N)cc1 | i | 1.1
Cc1ccc(CNC(=S)N2CCOCC2)cc1 | i | 0.25
CCOc1ccc(NC(=O)CN(Cc2ccccc2)S(C)(=O)=O)cc1 | i | 0.01

# Further records:
Compound | KCNQ2 inh | KCNQ2 inh baseline
Cc1ccc(NC(=S)NC(NC(=O)c2ccccc2)C(Cl)(Cl)Cl)c(C)c1 (stereo not drawn) | i | -1.8
Cc1nn(CC(=O)Nc2cccc(C(F)(F)F)c2)c(=O)c2cccn12 | i | -0.27
CCOc1ccc(NC(=O)CN(C)C(=O)c2cc(S(=O)(=O)N(C)C)ccc2N2CCCC2)cc1OCC | i | 1.8
CCOC(=O)c1sc(Nc2nc(C)cc(C)n2)nc1C | i | 1.1
NC(=O)c1nsc(C(=O)N(c2cccc(O)c2)C(C(=O)NC2CCCC2)c2ccc(Cl)cc2)c1N (stereo not drawn) | i | 0.07
Cc1ccc(-c2nc(C=Nc3ccccc3)c(O)o2)cc1 | i | 2.3
Cc1c(C(=O)OCC(=O)N2CC(C)CC(C)C2)oc2ccccc12 (stereo not drawn) | i | 0.01
CCOC(=O)Cc1csc(NC(=O)/C=C/c2ccco2)n1 | i | 0.66
O=C(/C=C/c1ccc(F)cc1)Nc1ccc(S(=O)(=O)N2CCOCC2)cc1 | i | 2.3
Cc1ccc(SC(C)c2nc(-c3ccncc3)no2)cc1 (stereo not drawn) | i | -2.5
Nc1ccc(N2CCN(CCCCN3C(=O)C4CCCN4C3=O)CC2)cc1 (stereo not drawn) | i | -0.01
O=C(NCCCN1CCOCC1)c1ccc(Cl)c([N+](=O)[O-])c1 | i | 1.9
O=C(NCC(=O)N1CCOCC1)c1ccc(Br)o1 | i | 0.6
CC1CCCCN1S(=O)(=O)c1ccc2c(c1)CCN2C(=O)C1CCC1 (stereo not drawn) | i | -0.59
CCOC(=O)C1(C)C=C(Nc2ccc(C)cc2)C(=O)N1c1ccc(C)cc1 (stereo not drawn) | i | 2.2
Cc1ccc(C[n+]2cc(-c3ccc(Cl)cc3)n3c2CCC3)cc1 | i | -0.55
Cc1nnc(SCC(=O)Nc2nc(-c3ccc(F)cc3)cs2)[nH]c1=O | i | 8.1
CCN(CC)C(=O)c1ccc(-c2nnc(Nc3cccc(O)c3)c3ccccc23)cc1 | i | -0.49
COC(=O)C1C(O)=C(C=NC2CCCCC2)C(=O)CC1(C)C (stereo not drawn) | i | 0.15
Cc1ccc(-c2ccc(C)c(N)c2C)c(C)c1N | i | 3.1
Cc1oc(-c2cccc(F)c2)nc1CN(Cc1ccccc1)C[C@@H]1CCC(=O)N1 | i | 0.21
Nn1c(SC/C=C/c2ccccc2)nnc1-c1ccncc1 | i | 0.1
COCc1cc(=O)[nH]c(Nc2nc3ccc(C)cc3o2)n1 | i | 0.27
CC(C)C(=O)Nc1ccc(-c2nc3cccnc3o2)cc1 | i | 0.38
CCCC(=O)Nc1c(-c2ccc(C)cc2)c(=O)c2ccccc2n1C | i | 0.46
CCCCNC(=S)NNC(=O)C12CC3CC(CC(C3)C1)C2 | i | -0.16
CCOc1ccccc1NC(=O)C(OC(=O)c1ccc(O)cc1)c1ccccc1 (stereo not drawn) | i | 0.91
Cc1c(C(=O)O)oc2c1C(O)CCC2 (stereo not drawn) | i | -0.72
O=C(NCc1cccnc1)C(=O)NC1CCCCC1 | i | 1.2
Cc1ccc(C2CC(C(F)(F)F)n3nc(C(=O)NCc4ccco4)cc3N2)cc1 (stereo not drawn) | i | -0.93
O=C(N/N=C/c1sc(N2CCOCC2)nc1-c1ccccc1)c1ccccc1Cl | i | -1.6
Cc1ccccc1-n1cc(CNCc2c(C(=O)N(C)C)nc3ccc(Cl)cn23)cn1 | i | 0.71
CC(OC(=O)Cc1c(F)cccc1Cl)C(=O)NC1(C#N)CCCCC1 (stereo not drawn) | i | -0.48
O=C(O)c1ccc2c(c1)OCCOCCOCCOCCOCCO2 | i | 1.1
CN1CCN(C2Cc3ccccc3Sc3cc(C(F)(F)F)ccc32)CC1 (stereo not drawn) | -7.4* | -0.02*
COc1ccc2cc(-c3[nH]ncc3CNCCn3nc(C)cc3C)ccc2c1 | i | -0.21
CC1=Nc2ccccc2N=C(NC(=O)c2ccccc2)C1c1ccc(Cl)cc1 (stereo not drawn) | i | -0.62
COc1ccccc1Sc1nc(-c2ccccn2)ncc1OC | i | -1.2
CCN(CC)C(=O)CSc1nnc([C@@H](N)Cc2ccccc2)o1 | i | -1.9
NNC(=O)CN1CCN(c2ncc(C(F)(F)F)cc2Cl)CC1 | i | -0.99
CN(C)c1ccc(CNn2cnnc2SCC(=O)NC(C)(C)C)cc1 | i | 0.02
CC(=O)c1nc2ccccc2n1Cc1ccccc1 | i | 1
CCOC(=O)c1nnc(-c2ccccc2)o1 | i | 2.2
COc1ccc(OC)c(-c2csc(NC(=O)CSc3ccc([N+](=O)[O-])cc3)n2)c1 | i | 2.9
COc1cccc(C(C#N)N2CCCCC2)c1O (stereo not drawn) | i | -0.27
COc1cccc(C(=O)/C=C/Nc2cc(C)ccc2O)c1 | i | -1.6
O=C(NCc1ccco1)Oc1ccccc1 | i | -1.4
CCC(C)(C)C1CCC(NC(=O)N2CCN(c3ccccc3O)CC2)CC1 (stereo not drawn) | i | -0.28
Cn1ncc(Cl)c1C(=O)N1CCN(c2cccc(Cl)c2)CC1 | i | -2
COc1cccc(/C=N/Nc2nc(-c3cccnc3)nc3ccccc23)c1 | i | 0.48

# Continuation.
Compound | KCNQ2 inh | KCNQ2 inh baseline
CCn1c(C)[n+](CCOC(C)=O)c2cc(Cl)c(Cl)cc21 | i | 0.97
Cc1ccccc1NC(=O)CSc1nc(COc2ccccc2)nc2ccccc12 | i | 0.05
Cc1ccc(C(=O)N2CCC(Cc3ccccc3)CC2)cc1[N+](=O)[O-] | i | 0.17
CCOc1ccc2[nH]cc(C(=O)NCc3ccc(F)cc3)c(=O)c2c1 | i | -0.49
CN(C(=O)CS(=O)(=O)Cc1ccccc1Cl)c1ccccc1 | i | 0.19
COc1cc(N)c(Cl)cc1C(=O)OCC(=O)c1cccs1 | i | 0.6
COC(=O)C1CCN(C(=O)c2oc3c(Cl)cc(C)cc3c2C)CC1 | i | -1.2
COc1ccc(C(=O)CSC#N)cc1OC | i | -0.11
CCNC(=O)NC(=O)C(C)SCc1ccccc1C (stereo not drawn) | i | 0.58
COc1cccc(N=c2oc3cc(O)ccc3cc2C(=O)NCC2CCCO2)c1 (stereo not drawn) | i | 0.9
O=c1c2cc(Br)ccc2nc2n1CCCCC2 | i | 3.1
CNS(=O)(=O)c1ccc(CCC(=O)N2CCOCC2)cc1 | i | 0.25
CCCN(CCO)Cc1cccc(Cl)c1 | i | 0.94
CCOCC(=O)Nc1ccc2c(c1)OCCO2 | i | 1
O=C(Nc1nccs1)c1cc(-c2ccccc2)nc2ccccc12 | i | -0.07
O=C(Nc1ccccc1N1CCOCC1)c1cc2c(s1)CCCCC2 | i | -0.5
Cc1ccc(/C=C/C(O)=C2/C(=O)N(C)C3(C)CC2c2ccccc2O3)cc1 (stereo not drawn) | i | -1.4
O=C(/C=C/c1ccc(F)cc1)NC(Cc1c[nH]c2ccccc12)C(=O)O (stereo not drawn) | i | -0.44
c1nnc(NC2=NCCC2)s1 | i | -0.93
COc1cc(NS(=O)(=O)c2ccc(NC(=O)C3CCCO3)cc2)nc(OC)n1 (stereo not drawn) | i | 1.7
C/C(CC(=O)Nc1cc(Cl)ccc1Cl)=N\NC(=O)c1ccccc1Br | i | -0.64
COc1ccc(C(=O)Nc2c3c(nn2-c2ccc([N+](=O)[O-])cc2)CS(=O)(=O)C3)cc1 | i | -0.49
O=C(CC(c1ccccc1)c1ccccc1)NCCO | i | 0.21
COc1cc(C2CC(=O)Nc3ccccc3S2)cc(OC)c1OC (stereo not drawn) | -8.5* | -1.4*
Fc1ccc(COc2ccccc2-c2ccnc3ncnn23)cc1 | i | -2.9

# The list is partial (hit frequency here may not be typical).
